# RecA splice inh: inhibitors of M. tuberculosis RecA intein splicing. P9WHJ3. inhibition, %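 (about 9 µM by stock and volumes)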. AID 2221. cell-free RecA intein splicing, fluorescence. actives 0.75% (n = 290,000); in the data active = inhibition above about 30%; inconclusive = no clear call, values can overlap the other calls;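 also: 0% = vehicle wells and 100% = reference inhibitor control wells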
# Target sequence (P9WHJ3 whole entry, looked up, canonical isoform): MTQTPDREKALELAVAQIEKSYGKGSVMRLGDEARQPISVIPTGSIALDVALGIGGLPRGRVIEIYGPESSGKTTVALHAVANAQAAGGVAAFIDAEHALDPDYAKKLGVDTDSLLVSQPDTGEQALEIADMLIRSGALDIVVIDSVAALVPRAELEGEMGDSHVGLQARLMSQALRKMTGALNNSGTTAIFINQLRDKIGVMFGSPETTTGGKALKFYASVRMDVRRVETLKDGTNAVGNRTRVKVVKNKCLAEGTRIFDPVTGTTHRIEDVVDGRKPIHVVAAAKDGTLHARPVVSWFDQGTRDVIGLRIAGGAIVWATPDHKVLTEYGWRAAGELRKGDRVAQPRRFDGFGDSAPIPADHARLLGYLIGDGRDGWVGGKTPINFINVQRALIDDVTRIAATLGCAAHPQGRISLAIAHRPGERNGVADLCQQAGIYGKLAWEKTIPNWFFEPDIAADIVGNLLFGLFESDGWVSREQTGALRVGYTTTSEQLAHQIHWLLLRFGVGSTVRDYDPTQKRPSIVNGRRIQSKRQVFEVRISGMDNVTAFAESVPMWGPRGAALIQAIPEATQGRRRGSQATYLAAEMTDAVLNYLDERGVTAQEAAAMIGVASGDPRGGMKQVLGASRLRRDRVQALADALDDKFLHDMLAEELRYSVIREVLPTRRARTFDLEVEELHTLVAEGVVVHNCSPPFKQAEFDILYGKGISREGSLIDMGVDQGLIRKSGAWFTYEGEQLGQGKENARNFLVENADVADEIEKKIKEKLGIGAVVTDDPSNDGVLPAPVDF
# Mtb H37Rv: M. tuberculosis H37Rv growth inhibitors, H37Rv strain (AID 1626) | M. tuberculosis H37Rv growth inhibition; higher % means a stronger effect | inhibition, % at 10 µM, or IC50 in µM where a hit was titrated | actives 0.95% (n = 220,000);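 active = confirmed in a dose series; inconclusive = inhibition above 80% but not taken into the dose series; inactive = below 80% or under 30% at every dose of the series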;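 also: bacteria incubated seven days before Alamar blue readout; 0% = bacteria only wells and 100% = bacteria with antibiotic wells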
# Mtb betalactam: beta-lactam sensitization of Mtb H37Rv; actives 0.27% (n = 330,000); AID 434955; inhibition, % at 25 µM; M. tuberculosis H37Rv growth with meropenem, percent inhibition; hits of this screen are not shown here;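 active = about 74% or more and at least 40 points above the plate without the antibiotic, then above 30% in a dose series; inconclusive = first-round hits that could not be retested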;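 also: growth measured after seven days incubation then overnight dye step; 0% = bacteria only wells and 100% = bacteria with antibiotic; twin plates without the antibiotic show which effects depend on it; some results filed as inactive read as strong as hits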
# Arbovirus anti: blocks arbovirus infection; actives 0.37% (n = 200,000); AID 1251; arbovirus infection cell-based antiviral screen; inhibition, % at 10 µM;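 active = inhibition from about 30%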;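 also: bluetongue infection of BSR cells; cell survival read as ATP light after 72 h; 0% = infected wells without compound and 100% = uninfected wells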
# YopH inh: blocks Yersinia enterocolitica YopH tyrosine phosphatase; inhibition, %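 (about 10 µM by stock and volumes)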; fluorescence Ex485/Em525; actives 0.16% (n = 140,000);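 active = inhibition of 50% or more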;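 also: controls were vehicle for no effect and minimum signal wells for full effect; inactives centre near -20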
# Arbovirus anti repeat: further read-out of Arbovirus anti, marked with its call; inhibition, %; measured here: 10K subset replicate screen; many hits read low in the repeat;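 first of two repeat runs on a subset; 0% = infected and 100% = uninfected wells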
# * = called active by the depositor; u = inconclusive; x = no result given. Some of the compounds tested; count on the stated rates, not on these rows.
SMILES,RecA splice inh,Mtb H37Rv,Mtb betalactam,Arbovirus anti,YopH inh,others
Cc1ccc(C)c(-n2c(Cc3cccs3)n[nH]c2=S)c1,0.2,8.6%,-4.2,4.0,-23.1,
CCN(CC)CCN1C(=O)C(=O)/C(=C(/O)c2ccc(F)cc2)C1c1cccnc1 (stereo not drawn),-0.9,-10.2%,-5.3,-2.5,-28.9,
Cc1cc(C)n(CC(O)Cn2cnc3c2c(=O)n(C)c(=O)n3C)n1 (stereo not drawn),-1.0,-6.8%,-20.6,-1.8,-0.7,
COc1cccc(C(=O)NCC2CCCN(C(=O)c3ccc(C=O)cc3)C2)c1OC (stereo not drawn),0.2,x,-5.1,x,x,
CC(C)C(NC(=O)c1ccc2c(c1)OCCO2)c1nc2ccccc2[nH]1 (stereo not drawn),-0.4,x,2.2,x,x,
CC(C)(C)n1nnnc1C(c1ccc(Cl)cc1)N(Cc1cccnc1)Cc1ccco1 (stereo not drawn),22.2,10.6%,-2.7,-19.4,-14.0,
COC(=O)c1sccc1-n1cccc1C(=O)C(=O)N1CC(C)OC(C)C1 (stereo not drawn),-1.1,2.8%,14.0,0.7,23.0,
O=C(CCl)N(c1ccccc1)C1CCCCC1,x,21.6%,97.8,-33.2,x,
CCCOc1ccc(C(=O)CCC(=O)OCC(=O)N2CC(=O)Nc3ccccc32)cc1,-0.2,-8.1%,-0.2,1.8,-5.6,
COc1ccc(/C=N/NC(=O)CN2CCN(Cc3ccccc3)CC2)cc1Br,1.9,-2.6%,-9.3,x,x,
OCCc1c[nH]c2ccc(OCc3ccccc3)cc12,-2.2,x,-0.7,x,x,
CNS(=O)(=O)c1cc(NC(C)=O)c(C)cc1C,0.2,1.5%,-2.5,6.0,-9.8,
O=C(NCc1ccccc1)c1onc(CSc2ccccc2)c1C(=O)NCc1ccccc1,-0.8,14.2%,-5.8,x,x,
CN(C)c1nc(N)c([N+](=O)[O-])c(NCC2CCCO2)n1 (stereo not drawn),0.7,-4.9%,-6.0,x,x,
Cc1c(N(C)S(=O)(=O)c2cccc(C(=O)NC(C)C)c2)c(=O)n(-c2ccccc2)n1C,2.9,x,-1.1,x,x,
CCn1c(O)c(C=Nc2ccccc2)n(-c2ccccc2)c1=S,5.3,-2.8%,-7.7,-22.9,-23.8,
Cc1nnc(SCC(=O)Nc2ccc(S(=O)(=O)N3CCCCC3)cc2)s1,3.8,0.4%,1.0,5.8,7.5,
CC(NC(=O)c1cccnc1)C(=O)N1CCCCC1 (stereo not drawn),-5.1,2.3%,-4.4,4.1,-0.5,
CCCCn1c(NC(=O)c2ccc(F)cc2)c(C#N)c2nc3ccccc3nc21,24.7,x,5.1,x,x,
CCN(c1ccc(OC)cc1)S(=O)(=O)c1nnc(NC(=O)COc2ccc(C)cc2)s1,-2.0,x,24.5,x,x,
COc1ccc(OC)c(NC(=O)C(=O)NNC(=O)C23CC4CC(CC(C4)C2)C3)c1,3.2,u,97.9,x,x,
Cc1ccc(C(=O)/C=C/c2ccc3c(c2)OCCO3)c(O)c1,6.1,12.1%,1.5,x,x,
CSc1nc2nc3c(cc2c(=O)n1-c1ccccc1)COC(C)(C)C3,2.4,-0.1%,-5.0,-5.3,x,
CCOc1ccc(-n2nnnc2SCC(=O)N2CCOCC2)cc1,-0.7,-4.2%,-7.5,5.8,-31.9,
CS(=O)(=O)N(Cc1ccc(C(=O)NC2CCCCC2O)cc1)c1ccccc1 (stereo not drawn),-1.9,4.3%,-8.6,2.4,-35.8,
Cc1ccc(S(=O)(=O)N2CCN(CCC#N)CC2)cc1,-0.3,-0.2%,5.6,8.2,x,
Fc1ccc(-n2cnnn2)c(F)c1,0.1,1.3%,-4.8,-0.8,-41.4,
Cc1ccc(-c2ccc(=O)n(CC(=O)Nc3ccc4c(c3)OCCO4)n2)cc1,-3.0,-9.5%,10.2,-8.9,x,
COc1cccc(CC2(CO)CCCN(Cc3ccccc3-c3ccco3)C2)c1 (stereo not drawn),-2.6,10.0%,-2.1,-19.6,x,
COc1ccccc1C(=O)NNC(=O)C(=O)Nc1cccc(Cl)c1C,1.8,x,97.5,x,x,
COC(=O)c1cc(NS(=O)(=O)c2ccc(C)c3ccccc23)ccc1N1CCOCC1,1.3,-0.7%,-2.9,x,x,
O=C(Nc1ccccc1C(=O)N1CCOCC1)C1CC(=O)N(c2ccc(F)cc2)C1 (stereo not drawn),-2.0,x,-4.4,x,x,
C=CCNC(=O)c1onc(CSc2ccccc2)c1C(=O)O,-2.0,-8.4%,4.0,11.9,-14.6,
O=C1NC2(CCCCC2)C(=O)N1/N=C/c1ccccc1Br,1.3,-12.4%,2.3,10.7,x,
CCOc1ccc(CCNC(=O)C2CC(=O)N(CCc3ccccc3)C2)cc1OCC (stereo not drawn),-3.1,x,-4.9,x,x,
COc1ccc2cc(CCNS(=O)(=O)c3c(C)cc(C)cc3C)c(=O)[nH]c2c1,1.1,x,3.0,x,x,
Oc1ccc(NCc2cccc(OCc3ccccc3)c2)cc1,16.6,46.0%,62.1,-10.4,x,
CCOCCOC(=O)c1cccc2c1-c1ccccc1C2=O,0.4,x,31.2,x,x,
CCN(CC)C(=O)N1CCC(NC(=O)Cc2ccccc2)CC1,-1.0,-7.5%,-4.2,-0.9,-53.3,
c1ccc(Cn2c(-c3cncs3)nc3ccccc32)cc1,3.1,1.4%,3.8,14.7,20.4,

# In the list so far, 5 have an aryl thioether with sulfur outside any ring.
SMILES,RecA splice inh,Mtb H37Rv,Mtb betalactam,Arbovirus anti,YopH inh,others
O=C(NCc1ccccc1)c1onc(CSc2ccccc2)c1C(=O)NCc1ccccc1,-0.8,14.2%,-5.8,x,x,
Cc1nnc(SCC(=O)Nc2ccc(S(=O)(=O)N3CCCCC3)cc2)s1,3.8,0.4%,1.0,5.8,7.5,
CSc1nc2nc3c(cc2c(=O)n1-c1ccccc1)COC(C)(C)C3,2.4,-0.1%,-5.0,-5.3,x,
CCOc1ccc(-n2nnnc2SCC(=O)N2CCOCC2)cc1,-0.7,-4.2%,-7.5,5.8,-31.9,
C=CCNC(=O)c1onc(CSc2ccccc2)c1C(=O)O,-2.0,-8.4%,4.0,11.9,-14.6,

# (list continues)
SMILES,RecA splice inh,Mtb H37Rv,Mtb betalactam,Arbovirus anti,YopH inh,others
COc1ccc(-c2cc(=O)oc(-c3cccc(C)c3)n2)cc1,-6.3,4.6%,40.3,x,x,
Cc1ccc(CCNC(=O)CCNS(=O)(=O)c2ccc3c(c2)oc(=O)n3C)cc1,0.0,-4.6%,3.8,-6.7,-0.3,
COc1ccc(N(CC(=O)NC2CCCCC2)C(=O)CCCC(=O)Nc2ccccn2)cc1,-0.5,x,6.4,x,x,
CC(CCc1ccccc1)NC(=O)CCC(=O)N1CCC(C(N)=O)CC1 (stereo not drawn),0.6,x,-2.2,x,x,
Cc1ccc(-c2nn(Cc3ccccc3)cc2C(=O)O)cc1,0.6,13.7%,-7.4,x,x,
O=C(NCCO)C(=O)Nc1cc2c3c(c1)CCC(=O)N3CCC2,-1.7,x,-2.0,x,x,
CCOc1cc(C2NN=C(c3ccc(C)cc3)S2)ccc1O (stereo not drawn),x,11.3%,98.6,-31.6,-2.5,
CCOC(=O)c1cnn(-c2ccccc2)c1-n1cccc1C(=O)C(=O)Nc1ccccc1C(F)(F)F,8.4,-4.0%,-5.4,-2.9,-20.6,
O=C(Nc1ccc2c(c1)N(Cc1ccccc1)C(=O)c1ccccc1S2)NC1CC1,13.6,1.9%,-3.8,-32.8,-22.4,
COc1ccc(-c2nnc(SCCC(=O)O)n2C)cc1OC,0.0,-2.9%,0.1,2.9,31.5,
CCCC(C)C(=O)N(Cc1ccccc1)c1ccccn1 (stereo not drawn),2.6,-8.3%,-1.3,4.7,0.0,
COC(CNC(=O)Cn1ncc2ccsc2c1=O)OC,1.9,-9.4%,-5.3,-2.4,10.3,
CCOC(=O)C1=C(C)N(C)C(=O)C1CC(=O)O (stereo not drawn),-0.8,-5.7%,-27.1,-1.6,-29.7,
O=C(CN1CCC(C(=O)c2ccc3c(c2)OCCO3)CC1)NC1CCCC1,-2.3,92.9%,-10.7,-5.9,-52.6,
O=C(COC(=O)c1cc(S(=O)(=O)N2CCCCC2)ccc1N1CCOCC1)c1ccc(Cl)cc1,3.9,x,-5.3,x,x,
O=C(CSc1nc2ccccc2o1)NC(=O)NCc1ccco1,1.6,-3.1%,-17.2,10.7,12.2,
O=C(CN1CCN(Cc2ccccc2)CC1)N/N=C\C=C/c1ccco1,0.6,0.6%,47.7,5.2,-10.8,
COc1ccc(OC)c(C(=O)COC(=O)c2ccccc2O)c1,x,-2.4%,u,-1.8,-42.6,
CC(C)(C)c1ccc(OCCC(=O)OCC(=O)Nc2ccc(N3CCOCC3)cc2)cc1,-4.0,x,-2.0,x,x,
O=C(C[n+]1cc(-c2ccc(Cl)c(Cl)c2)n2c1CCC2)N1c2ccccc2Sc2ccccc21,9.3,12.2µM*,100.9,-21.4,-16.7,

# Structural class: those above with a tert-butyl group.
SMILES,RecA splice inh,Mtb H37Rv,Mtb betalactam,Arbovirus anti,YopH inh,others
CC(C)(C)n1nnnc1C(c1ccc(Cl)cc1)N(Cc1cccnc1)Cc1ccco1 (stereo not drawn),22.2,10.6%,-2.7,-19.4,-14.0,
CC(C)(C)c1ccc(OCCC(=O)OCC(=O)Nc2ccc(N3CCOCC3)cc2)cc1,-4.0,x,-2.0,x,x,

# The listing continues:
SMILES,RecA splice inh,Mtb H37Rv,Mtb betalactam,Arbovirus anti,YopH inh,others
COCCCNC(=O)C(=O)Nc1cc2c3c(c1)CCN3C(=O)CC2,3.1,x,-3.7,x,x,
CC1CCN(CCNC(=O)c2ccc(NC(=O)C3CCCO3)cc2)CC1 (stereo not drawn),-1.3,-3.8%,5.2,6.0,-0.3,Arbovirus anti repeat=4.4
COC(=O)c1c(NC(=O)COC(=O)c2ccc(O)cc2)sc2c1CCCCC2,3.6,-14.5%,0.1,-0.6,-4.7,
CC(=O)Nc1ccc2c(c1)C(=O)c1ccccc1C2=O,0.5,-2.3%,-1.1,-12.2,-28.7,
COCCNC(=O)/C(C#N)=C/c1cccc(NC(=O)c2ccccc2Cl)c1,1.1,-5.9%,0.0,1.6,-31.5,
CNC(=O)OC(C)CNS(=O)(=O)c1ccc(C)cc1 (stereo not drawn),-2.3,13.6%,1.9,5.3,-39.1,
CC(=O)Oc1ccc(C(=O)O)c(OC(C)=O)c1,-1.4,-7.2%,-3.6,x,x,
CC[n+]1c(/C=C/c2ccc(OC)c(OC)c2)ccc2ccccc21,0.8,x,7.5,x,x,
O=C(CCC(=O)Nc1ccccc1Cl)NNC(=O)c1ccccc1[N+](=O)[O-],2.5,1.4%,0.7,2.3,x,
c1ccc(CSc2nnnn2-c2cccc3ccccc23)nc1,5.5,-0.7%,-0.8,-1.4,-56.1,

# Reprinted from the part before: 7 compounds, then new ones.
SMILES,RecA splice inh,Mtb H37Rv,Mtb betalactam,Arbovirus anti,YopH inh,others
CC(=O)Nc1ccc2c(c1)C(=O)c1ccccc1C2=O,0.5,-2.3%,-1.1,-12.2,-28.7,
COCCNC(=O)/C(C#N)=C/c1cccc(NC(=O)c2ccccc2Cl)c1,1.1,-5.9%,0.0,1.6,-31.5,
CNC(=O)OC(C)CNS(=O)(=O)c1ccc(C)cc1 (stereo not drawn),-2.3,13.6%,1.9,5.3,-39.1,
CC(=O)Oc1ccc(C(=O)O)c(OC(C)=O)c1,-1.4,-7.2%,-3.6,x,x,
CC[n+]1c(/C=C/c2ccc(OC)c(OC)c2)ccc2ccccc21,0.8,x,7.5,x,x,
O=C(CCC(=O)Nc1ccccc1Cl)NNC(=O)c1ccccc1[N+](=O)[O-],2.5,1.4%,0.7,2.3,x,
c1ccc(CSc2nnnn2-c2cccc3ccccc23)nc1,5.5,-0.7%,-0.8,-1.4,-56.1,
CCC(C)NC(=O)NCc1ccccc1F (stereo not drawn),-0.6,3.7%,-4.1,2.8,x,
c1ccc(-n2cc(CN3CCCC3)c(-c3ccc4c(c3)OCO4)n2)cc1,4.3,-7.4%,-3.9,-6.7,x,
O=C(CCOc1ccccc1)Nc1ccnn1C1CCN(Cc2ccc(CO)o2)CC1,-4.3,x,9.7,x,x,
COc1ccc(/C=C/C(=O)NCC(c2ccc(F)cc2)N2CCOCC2)cc1OC (stereo not drawn),-2.0,3.9%,5.8,x,x,
OCC1(CCOc2ccccc2)CCN(Cc2ccc(OC(F)F)cc2)CC1,-1.6,x,2.5,x,x,
O=C(O)CCc1ccc(-c2cccs2)o1,1.8,-19.9%,5.4,-3.9,-42.7,
